INS promoter inh = TRM-6 insulin promoter activity inhibition. TRM-6 cells (human fetal islet line), insulin promoter-eGFP reporter, imaging; reporter expression induced with tamoxifen. inhibition, % at 2 µM. 0.9% of 130,000 active. AID 1273;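 active = inhibition above the mean plus 3 SD, with well images judged a real hit on visual review, cut at about 60% in these data, passing the limit was not always enough; inconclusive = inhibition over the cutoff but images rejected on review; inactive = inhibition not above the cutoff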
GALR2 ag = agonists of human galanin receptor 2 (GALR2); O43603; 0.48% of 140,000 active; GALR2-expressing cells, agonist activation read-out; activation, %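 (tested at 5 µM)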;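 active = above mean plus 3 SD of all compounds, about 5% in these data, not always enough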;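 also: 0% = vehicle buffer wells and 100% = reference agonist at full effect; tested in CHO reporter cells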
Target sequence (O43603 whole entry, looked up): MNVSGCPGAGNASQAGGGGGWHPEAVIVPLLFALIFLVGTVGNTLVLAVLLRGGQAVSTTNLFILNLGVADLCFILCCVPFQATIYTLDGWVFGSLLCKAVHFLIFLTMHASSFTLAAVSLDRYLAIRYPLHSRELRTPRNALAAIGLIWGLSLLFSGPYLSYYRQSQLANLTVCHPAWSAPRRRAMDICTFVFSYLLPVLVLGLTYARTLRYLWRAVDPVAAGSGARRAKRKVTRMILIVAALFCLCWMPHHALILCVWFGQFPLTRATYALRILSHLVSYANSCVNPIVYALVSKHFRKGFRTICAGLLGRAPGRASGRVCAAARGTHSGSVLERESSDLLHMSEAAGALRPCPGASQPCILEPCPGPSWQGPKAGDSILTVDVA
HSV augment = increases HSV replication in cells; HSV replication augmentation in cells, fold increase; maximum fold increase; 0.005% of 220,000 active;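 active = peak rise of 1.5-fold or more in the series; inconclusive = self-fluorescent or not available for retest; tested in PC3 cells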;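 also: first round at 10 µM; read as green reporter fluorescence; hits show the peak of a series up to 25 µM; 1 = signal of infected wells without compound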
RGS16-Gao HTS = RGS16-Galphao interaction regulator (human); O15492+P09471; bead-based flow cytometry RGS16-Galphao binding, fluorescence; actives lie on both sides; binding response (% of control), % at 10 µM; 0.38% of 220,000 active; AID 1441;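 active = below 25% or above 175%, edge rows of some plates excepted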;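 also: Galphao activated by GDP with aluminum fluoride before binding; 100% = wells without compound and 0% = beads without RGS; some results beyond the cut were filed as inactive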
Target sequence (O15492 whole entry, looked up): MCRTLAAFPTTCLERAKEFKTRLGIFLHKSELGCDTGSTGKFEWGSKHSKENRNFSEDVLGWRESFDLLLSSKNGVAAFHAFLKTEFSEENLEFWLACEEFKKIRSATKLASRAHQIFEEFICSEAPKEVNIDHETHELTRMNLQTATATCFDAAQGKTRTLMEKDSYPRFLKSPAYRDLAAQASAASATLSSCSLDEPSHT
Target sequence (P09471 whole entry, looked up): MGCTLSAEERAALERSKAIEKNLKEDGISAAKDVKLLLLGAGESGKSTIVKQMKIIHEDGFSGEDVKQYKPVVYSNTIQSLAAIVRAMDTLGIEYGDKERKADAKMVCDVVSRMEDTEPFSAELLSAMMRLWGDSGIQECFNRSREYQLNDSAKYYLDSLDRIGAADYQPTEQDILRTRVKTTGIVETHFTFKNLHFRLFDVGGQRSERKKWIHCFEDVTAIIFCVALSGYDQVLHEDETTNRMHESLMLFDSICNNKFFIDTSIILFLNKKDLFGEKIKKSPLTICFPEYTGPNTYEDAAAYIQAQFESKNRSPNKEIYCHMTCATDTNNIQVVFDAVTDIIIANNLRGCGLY
PKD1 kinase inh = PKD1 (human) kinase inhibition; Q15139; PKD1 kinase fluorescence polarization assay; inhibition, %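 (about 10 µM by stock and volumes)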; 0.056% of 200,000 active; AID 797;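 active = inhibition of 50% or more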;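 also: controls were vehicle for no effect and a reference inhibitor for full effect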
INS promoter inh cell count = also measured in INS promoter inh; calls as there; normalized cell count, %; measured here: cell count, toxicity; reference of the scale not given here;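 cells exposed to compound for 48 h; stained nuclei by imaging scaled within each plate; lower means fewer cells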
HSV augment primary fold = further read-out of HSV augment, marked with its call; fold increase; compound at 10 µM; measured here: primary screen fold increase 10 uM; tested in PC3 cells;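 GFP signal in the first replicate; 1 = infected wells without compound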
* marks the source's active call; other numbers are inactive results; i = inactive; ? = inconclusive; · = not tested or not shown; & = joins results of further samples.

smiles,INS promoter inh cell count,PKD1 kinase inh,GALR2 ag,INS promoter inh,HSV augment,HSV augment primary fold,RGS16-Gao HTS
Cc1nc(SCn2nnc3ccccc3c2=O)nc(C)c1C,134,-3,-2.5,7,i,0.89,102
O=C(N/N=C/c1cccc(Oc2ccccc2)c1)c1ccccc1Br,·,-10,-0.9,·,i,0.73,107
S=c1[nH]nc(COc2ccccc2)n1/N=C/c1ccccn1,119,-11,1.0,24,i,1,97
CC(C)Cn1cnc2c(c1=N)C(c1ccccc1)C1=C(CC(C)(C)CC1=O)O2 (configuration not stated),·,·,·,·,i,1.1,103
Cc1ccc(-n2nc(C)c3c(=O)[nH]c(C(F)(F)F)nc32)cc1,116,-4,-0.5,-22,i,0.96,53
O=C(NCc1ccco1)Nc1ccc([N+](=O)[O-])cc1,·,-3,·,·,i,0.93&0.93,104&94
CC(=O)N1CCC2(CC1)C/C(=N\NC(=S)Nc1ccccc1C)c1cc(O)ccc1O2,·,4,·,·,i,1,96
O=C(CSc1nnc(C2CC2)n1Cc1ccccc1)Nc1cccnc1Cl,·,12,·,·,i,0.99,96
COC(=O)c1cc(NC(=O)c2c(-c3c(Cl)cccc3Cl)noc2C)ccc1N1CCOCC1,·,·,·,·,i,0.85,86
COc1ccc(CCNC(=O)CSc2nc3[nH]ncc3c(=O)n2-c2ccccc2OC)cc1OC,77,-2,·,-36,i,1.1,98
O=C1c2ccccc2S(=O)(=O)N1CC(O)COc1ccc(Br)cc1 (configuration not stated),88,-1,-1.3,-16,i,0.87,109
COc1ccc(/C=C2\SC(=O)N(CCNC(=O)C3CC(=O)N(c4ccccc4)C3)C2=O)cc1 (configuration not stated),39,1,-2.2,-3,i,0.85,101
CS(=O)(=O)NCCCNc1ccc(C(F)(F)F)cc1[N+](=O)[O-],·,·,·,·,i,0.87,106
COC(=O)C1=C(C(=O)OC)SC2(S1)C(C(=O)OC)=C(C(=O)OC)SC1=C2c2cc(C)ccc2NC1(C)C,90,-7,-2.4,21,?,·,83
O=C(CSc1nc2ncccc2[nH]1)NCc1ccccc1,66,-2,-0.4,-62,i,0.9,107
CCCOc1ccc(-c2nnn(CC(=O)N3CCCC(C)C3)n2)cc1 (configuration not stated),·,·,·,·,i,0.86,102
Cc1cccc(C)c1N=Cc1c(C(F)(F)F)[nH][nH]c1=O,·,-2,·,·,i,0.94,101
Cc1ccccc1NC(=S)NNC(=O)c1ccoc1C,96,10,0.1,-56,i,0.95,104
CCOc1cccc2sc(Cl)nc12,·,3,·,·,i,1.1,101
O=C(N/N=C/c1ccc(OCc2ccccc2)cc1)c1ccc(O)cc1,122,-2,·,-25,i,0.84,99

Whole records as entered above. Screens in order: INS promoter inh cell count | PKD1 kinase inh | GALR2 ag | INS promoter inh | HSV augment | HSV augment primary fold | RGS16-Gao HTS
O=C1c2ccccc2S(=O)(=O)N1CC(O)COc1ccc(Br)cc1 (configuration not stated) in the list: 88 | -1 | -1.3 | -16 | i | 0.87 | 109
CCCOc1ccc(-c2nnn(CC(=O)N3CCCC(C)C3)n2)cc1 (configuration not stated) in the list: · | · | · | · | i | 0.86 | 102
Cc1cccc(C)c1N=Cc1c(C(F)(F)F)[nH][nH]c1=O in the list: · | -2 | · | · | i | 0.94 | 101

Carrying on:
smiles,INS promoter inh cell count,PKD1 kinase inh,GALR2 ag,INS promoter inh,HSV augment,HSV augment primary fold,RGS16-Gao HTS
O=S(=O)(NCCc1csc(-c2ccccc2)n1)c1cccnc1,·,·,·,·,i,1,107
CS(=O)(=O)N1CCC(C(=O)Nc2cc(Cl)cc(Cl)c2)CC1,116,14,·,-6,i,0.96,109
CC(C)(CO)N=C1NS(=O)(=O)c2cc([N+](=O)[O-])ccc21,160,17,-1.2,15,i,0.97,102
c1ccc(Nc2ccnc(Nc3ccccc3)n2)cc1,·,·,·,·,i,0.91,88
CCn1c(Cc2ccc(OC)cc2)nnc1SCC(=O)NC1CCCCC1,143,-5,-2.1,-64,i,1,105
COc1ccc(Cc2nnc(NS(=O)(=O)c3ccc(Cl)cc3)s2)cc1OC,·,3,·,·,i,1.1,76
CC(=O)c1cccc(NC(=O)NNC(=O)CCC(=O)Nc2ccc(C)c(C)c2)c1,101,-3,·,22,i,0.86,98
Cn1nc(C(F)(F)F)c(CN2CC(C)(C)C2=O)c1N1CCOCC1,·,-3,·,·,i,0.91,102
CCCC(=O)Nc1ccc(C(=O)n2ccc(C)n2)cc1,·,-1,·,·,i,1.1,97
CC(C)N1CCC(=NNC(=O)c2ccc(Br)o2)CC1,·,12,-3.7,·,i,0.92,92
O=C(CN1C(=O)CCC1=O)NNc1ccc2ccccc2c1,83,2,·,-112,i,1.2,109
Cc1nn(C(C)(C)C)c(N)c1-c1ccccc1,172,-7,-1.9,45,i,0.95,106
Cc1ccc(NC(=O)CNCCCN2CCOCC2)cc1S(=O)(=O)N1CCCCC1,·,·,·,·,i,0.89,98
CCOc1ccc(/C(O)=C2/C(=O)C(=O)N(CCOCCO)C2c2ccc(F)cc2)cc1 (configuration not stated),133,-4,-0.4,-18,i,1,103
N#Cc1c(NC(=O)Cn2cnc3ccccc3c2=O)oc(-c2ccccc2)c1-c1ccccc1,114,-9,-0.3,-100,i,1,102
CC(=O)c1c(N(C)C)ccnc1C(F)(F)F,·,0,-1.2,·,i,1.1,102
O=S(=O)(Nc1cccc(S(=O)(=O)N2CCOCC2)c1)c1ccc2c(c1)OCCO2,·,2,·,·,i,1.1,102
CCOC(=O)C1CCN(CC(=O)Nc2c(C(=O)OC)[nH]c3cccc(C)c23)CC1,94,-4,-1.9,12,i,0.97,105
CC(=O)c1sc(NC(=O)c2ccc(Cn3cc(Br)cn3)o2)nc1C,45,-6,-0.9,-64,i,0.75,106
O=[N+]([O-])c1cc2c(cc1[N+](=O)[O-])OCCOCCOCCOCCO2,114,3,·,-25,i,0.96,98
Cc1cc(C(=O)Nc2nc3ccc(Cl)cc3s2)nn1C,·,·,·,·,i,0.89,98
Cc1ccccc1NC(=O)CSc1nn2c(=O)c(C)nnc2s1,101,-3,·,17,i,1.1,100
O=S(=O)(CCc1nc2ccccc2o1)c1ccc(Cl)c(Cl)c1,·,-2,-0.6,·,i,0.9,96
Cc1ccccc1-c1noc(-c2ccc(Cl)cc2)n1,110,-4,-3.4,39,i,0.93,99
COC1CCCN(Cc2cn(C)nc2-c2ccc(Oc3ccccc3)cc2)C1 (configuration not stated),·,-9,·,·,i,1,89
COc1ccc2c(c1)CC/C(=C/c1cc(OC)c(OC)c(OC)c1)C2=O,117,-1,·,-29,i,0.84,99
Cc1ccc(CNC(=O)c2ccc(Cn3nc(C)c(Cl)c3C)o2)cc1,92,3,-0.5,14,i,1,99
O=C1NC(Nc2nc3ccccc3s2)(C(F)(F)F)C(=O)N1C1CCCCC1 (configuration not stated),42,-3,0.2,-8,i,0.86,97
C=CCn1c2ccccc2c2nnc(SCC(=O)NC(C(=O)OC)C(C)C)nc21 (configuration not stated),104,4,0.5,-65,i,0.99,121
C[C@H]1C=C(C(=O)N2CCN(Cc3ccc4c(c3)OCO4)CC2)O[C@@H](OCc2ccc(CO)cc2)C1,·,-1,·,·,·,·,99
O=C(O)CCCCCN=C1CCc2ccccc2N1,121,24,-0.3,-21,i,0.89,98
Cc1ccc(C2/C(=C(\O)c3ccc4c(c3)OCCO4)C(=O)C(=O)N2CCCN(C)C)o1 (configuration not stated),·,-1,-2.8,·,i,1.2,99
O=C1c2ccccc2C(=O)N1CCc1nc(-c2ccccn2)no1,·,-7,-0.8,·,i,0.86,105
O=c1[nH][nH]c(C(F)(F)F)c1C=Nc1ccc(Cl)cc1,69,7,-0.2,7,i,0.86,93
Cc1ccc(NC(=O)CC2SC(=NC3CCCCC3)NC2=O)cc1 (configuration not stated),62,-3,-0.8,-364,i,0.97,111
CN(C)/C=C1\N=C(c2ccc3c(c2)OCO3)OC1=O,112,8,-1.4,-62,i,0.9,115
CCOC(=O)N1CCN(C(=O)COC(=O)c2cc(Cl)c(O)c(Cl)c2)CC1,·,-3,·,·,i,0.94,104
COc1ccc(NC(=O)c2ccco2)cc1NC(=O)c1cccs1,63,-2,-1.3,-273,i,0.96,105
Cc1csc(NC(=O)c2cc(C)nc3ccccc23)n1,75,7,·,-8,i,0.87,179
CCn1cc(C(=O)OCC(=O)N(C)Cc2ccccc2)c(=O)c2ccc(C)nc21,·,-3,·,·,i,0.9,99
O=C(NC(=S)Nc1ccccc1)c1ccc(Br)o1,132,4,·,29,i,1.2,100
Cc1cccc(NC(=O)c2ccc(-n3cccn3)c([N+](=O)[O-])c2)c1,124,-2,-1.0,-10,i,0.95,91
Cc1ccc2[nH]c(=O)c(CN(C)C(=O)c3cccs3)cc2c1,·,2,·,·,i,0.91,93
COc1ccc2c(c1)C1NC(=S)N[C@@](C)(O2)C1C(=O)Nc1ccccc1 (some centres not stated),85,-3,0.8,50,i,0.9,97
COc1ccc(NC(=O)c2sc(SCc3ccccc3)nc2N)cc1,93,-14,-1.2,-41,i,0.92,105
CC(NC(=O)c1ccc(C(C)(C)C)cc1)C(=O)O (configuration not stated),98,-4,-0.5,25,i,0.91,100
COc1ccc(Nc2nc3c(C)cccc3cc2C#N)cc1,61,-8,·,32,i,0.96,106
CC(=O)Nc1ccc(S(=O)(=O)N2CCN(C(=O)N3CCOCC3)CC2)cc1,140,-6,-2.0,-44,i,0.92,100
CCN(CC)CCNS(=O)(=O)c1ccc(Cl)cc1,·,-1,-2.8,·,i,1,98
CC(C)CNC(=S)NC(=O)c1ccc([N+](=O)[O-])cc1,·,6,-4.1,·,i,0.93,97

Other compounds.
smiles,INS promoter inh cell count,PKD1 kinase inh,GALR2 ag,INS promoter inh,HSV augment,HSV augment primary fold,RGS16-Gao HTS
CCNC(=O)N1C(=O)C2(OCCO2)c2ccccc21,·,6,0.1,·,i,0.94,101
CCOc1ccc(C2N(c3cc(C)on3)C(=O)C3CCCN32)cc1OC (configuration not stated),63,-16,0.5,-120,i,0.9,102
C=CC[n+]1c(-c2ccccc2)csc1NC(C)(C)C,·,1,·,·,i,1.1,102
N=c1c2c3c(sc2ncn1N)CCCCC3,·,1,-0.2,·,i,1.1,155
COc1ccccc1CNCc1cc(OC)c(OC)cc1OC,67,4,-1.8,-114,i,1,102
CC(=O)Nc1nc(C)c(Oc2cccc(C(F)(F)F)c2)c(=O)[nH]1,·,·,·,·,i,1.1,98
CC(=O)c1ccccc1OC(=O)CCN1C(=O)C2C3C=CC(C4CC34)C2C1=O (configuration not stated),·,-4,·,·,i,0.94,102
NC(=O)c1ccsc1NC(=O)COC(=O)/C=C/c1ccc([N+](=O)[O-])cc1,·,·,·,·,i,1.1,94
O=C(O)[C@@H]1CCCN1C(=O)c1ccco1,103,-7,-1.1,29,i,1,53
COc1cccc(Nc2nnc(SCN3C(=O)c4ccccc4C3=O)s2)c1,·,-4,-0.9,·,i,1.1,551
CCCC(C)C(=O)Nc1ccc(S(N)(=O)=O)cc1 (configuration not stated),·,-5,·,·,i,1.1,98
Cc1cc(S(=O)(=O)Nc2c(C)nc3nc[nH]n3c2=O)ccc1F,·,-8,·,·,i,0.98,107
CCOC(=O)c1c(NC(=O)/C=C\C(=O)O)sc(C)c1-c1ccccc1,110,-5,·,5,i,0.97,111
COc1ccc(N(CC(=O)Nc2cccc([N+](=O)[O-])c2C)S(C)(=O)=O)cc1OC,79,1,-0.5,21,i,1,98
Cc1cc(C(=O)CSc2ncccn2)c(C)n1-c1cccc(F)c1,128,2,-1.7,12,i,0.88,101
COc1ccc(S(=O)(=O)N2CCCCC2)cc1NC(=O)CN(C)C1CCCCC1,77,-1,·,25,i,1,114
CC(C)Cc1csc(NC(=O)c2ccccc2Cl)c1C(=O)O,100,-2,-0.2,-28,i,1.1,99
CCCCc1nc(N)c(C#N)c(-c2ccco2)c1CCC,132,-4,-0.9,-8,i,0.8,102
CCS(=O)(=O)N1Cc2ccccc2CC1C(=O)Nc1nc2ccc(F)cc2s1 (configuration not stated),48,-15,-1.3,37,i,0.84,107
CC(=O)Nc1cccc(-c2csc(Nc3ccc(C)cn3)n2)c1,·,-5,-0.1,·,i,0.86,108

Source: PubChem (several laboratories)
